Assay outcomes from PubChem.
PKD1 inh: PKD1 (human) kinase inhibition; inhibition, %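 (about 10 µM by stock and volumes)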; PKD1 kinase fluorescence polarization assay; hit rate 0.056% among 200,000;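 active = inhibition of 50% or more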;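 note: controls were vehicle for no effect and a reference inhibitor for full effect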
RGS16-Gao: modulates binding between human RGS16 and Galphao. bead-based flow cytometry RGS16-Galphao binding, fluorescence; actives lie on both sides. AID 1441. binding response (% of control), % at 10 µM. O15492+P09471. hit rate 0.38% among 220,000;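 active = below 25% or above 175%, edge rows of some plates excepted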;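 note: Galphao activated by GDP with aluminum fluoride before binding; 100% = wells without compound and 0% = beads without RGS; some results beyond the cut were filed as inactive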
Target sequence (O15492 whole entry, looked up): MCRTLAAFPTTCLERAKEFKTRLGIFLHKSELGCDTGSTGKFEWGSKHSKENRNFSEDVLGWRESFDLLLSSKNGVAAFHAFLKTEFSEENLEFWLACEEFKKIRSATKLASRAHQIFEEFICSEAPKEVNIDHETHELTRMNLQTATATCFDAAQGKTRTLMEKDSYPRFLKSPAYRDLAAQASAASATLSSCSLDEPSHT
Target sequence (P09471 whole entry, looked up): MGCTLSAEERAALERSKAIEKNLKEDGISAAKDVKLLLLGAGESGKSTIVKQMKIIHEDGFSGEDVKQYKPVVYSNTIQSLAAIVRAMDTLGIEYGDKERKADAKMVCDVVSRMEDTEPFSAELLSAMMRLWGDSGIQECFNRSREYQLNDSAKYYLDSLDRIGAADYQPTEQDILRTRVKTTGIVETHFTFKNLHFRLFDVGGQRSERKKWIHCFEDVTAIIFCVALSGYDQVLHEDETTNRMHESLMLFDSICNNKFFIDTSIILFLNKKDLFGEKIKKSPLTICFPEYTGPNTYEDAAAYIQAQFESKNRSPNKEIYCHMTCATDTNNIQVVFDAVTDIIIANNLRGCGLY
HSV replic up: HSV replication enhancement. HSV replication augmentation in cells, fold increase. maximum fold increase. hit rate 0.005% among 220,000. AID 1956;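 active = peak rise of 1.5-fold or more in the series; inconclusive = self-fluorescent or not available for retest; tested in PC3 cells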;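 note: first round at 10 µM; read as green reporter fluorescence; hits show the peak of a series up to 25 µM; 1 = signal of infected wells without compound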
GALR2 ag: activates the human galanin receptor 2; hit rate 0.48% among 140,000; O43603; GALR2-expressing cells, agonist activation read-out; AID 803; activation, %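 (tested at 5 µM)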;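 active = above mean plus 3 SD of all compounds, about 5% in these data, not always enough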;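 note: 0% = vehicle buffer wells and 100% = reference agonist at full effect; tested in CHO reporter cells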
Target sequence (O43603 whole entry, looked up): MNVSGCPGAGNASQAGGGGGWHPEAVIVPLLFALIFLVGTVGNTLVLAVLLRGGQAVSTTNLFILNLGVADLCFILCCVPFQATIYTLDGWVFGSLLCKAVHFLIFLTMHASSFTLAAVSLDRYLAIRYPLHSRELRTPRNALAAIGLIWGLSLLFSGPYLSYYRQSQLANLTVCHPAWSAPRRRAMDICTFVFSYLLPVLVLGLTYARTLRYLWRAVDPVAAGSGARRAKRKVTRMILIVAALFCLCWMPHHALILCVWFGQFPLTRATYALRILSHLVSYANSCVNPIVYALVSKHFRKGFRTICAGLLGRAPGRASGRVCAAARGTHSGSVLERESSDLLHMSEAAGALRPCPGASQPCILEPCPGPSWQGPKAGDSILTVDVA
Insulin prom inh: TRM-6 insulin promoter activity inhibition | TRM-6 cells (human fetal islet line), insulin promoter-eGFP reporter, imaging; reporter expression induced with tamoxifen | inhibition, % at 2 µM | hit rate 0.9% among 130,000 | AID 1273;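 active = inhibition above the mean plus 3 SD, with well images judged a real hit on visual review, cut at about 60% in these data, passing the limit was not always enough; inconclusive = inhibition over the cutoff but images rejected on review; inactive = inhibition not above the cutoff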
Insulin prom inh cell count: further read-out of Insulin prom inh, marked with its call; normalized cell count, %; measured here: cell count, toxicity; reference of the scale not given here;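 cells exposed to compound for 48 h; stained nuclei by imaging scaled within each plate; lower means fewer cells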
HSV replic up primary fold: recorded beside HSV replic up, whose call it bears; fold increase; compound at 10 µM; measured here: primary screen fold increase 10 uM; tested in PC3 cells;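 GFP signal in the first replicate; 1 = infected wells without compound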
Numbers without * were called inactive; i = inactive; ? = inconclusive; nt = no result given.

Structure,PKD1 inh,RGS16-Gao,HSV replic up,HSV replic up primary fold,GALR2 ag,Insulin prom inh,Insulin prom inh cell count
O=C(Nc1ccc2sccc2c1)c1ccc(Cl)s1,-5,91,i,0.79,-1.8,43,143
COCCNC(=O)c1cc2sc3ccccc3c2s1,2,125,i,1,-2.0,nt,nt
Nc1ccc(C(=O)N2CCCC2)cc1,3,99,i,0.89,-1.5,60,107
O=C(O)CN1C(=O)SC(Nc2ccc(Cl)cc2)C1=O (configuration not stated),0,109,i,0.8,0.5,0,131
CCSCCNC(=O)c1cncc(Br)c1,-2,99,i,0.92,-2.4,-8,172
O=C(CCNC(=O)c1ccccc1Cl)Nc1cc(C(F)(F)F)ccc1Cl,11,106,i,0.96,-0.2,-13,95
c1ccc(N2CCN(Cc3ccsc3)CC2)nc1,-7,107,i,0.95,-1.4,25,116
COc1cccc(C(=O)COc2cccc(NC(=O)c3ccco3)c2)c1,2,105,i,0.95,nt,nt,nt
C=CCNc1nc(C)c(C(C)=O)cc1C#N,6,104,i,0.88,-0.7,nt,nt
COCCNC(=O)c1cc(-c2ccc(Cl)c(Cl)c2)on1,-2,102,i,0.99,-0.8,nt,nt
Cc1cccc(NCc2ccccc2OCc2ccccc2F)c1,-9,113,i,0.98,1.1,15,131
COc1ccc(OC)c(-c2c(C#N)c(N)nc3c2c(=O)nc2sccn23)c1,-5,78,i,0.92,nt,0,98
Cc1ccc(OCC(=O)Nc2cc(S(=O)(=O)N3CCCCC3)ccc2C)c([N+](=O)[O-])n1,0,97,i,1.1,0.3,10,88
CC(C)c1nccn1S(=O)(=O)c1cc(Cl)ccc1Cl,-10,170,i,1.1,-0.2,-39,107
CCOC(=O)CCC(NC(=O)CCCCCCCCC(=O)NC(CCC(=O)OCC)C(=O)OCC)C(=O)OCC (configuration not stated),-4,71,i,0.88,-2.6,-22,109
O=C(NCc1nnc2c3ccccc3c(-c3ccccc3)nn12)c1ccccc1Cl,7,102,i,0.96,0.8,14,43
Cc1[nH][nH]c(=O)c1C=NCc1cccs1,2,103,i,0.94,nt,nt,nt
CCN1CCc2c(C#N)c(N3CCOCC3)nc(N3CCOCC3)c2C1,6,99,i,1,0.3,-59,109
O=C(c1cccc(NS(=O)(=O)c2ccc(F)c(F)c2)c1)N1CCN(C(c2ccccc2)c2ccccc2)CC1,-4,103,i,1.1,0.7,7,134
O=C(CN1CCN(c2ccc(F)cc2)CC1)Nc1ccc(-n2cnnn2)cc1,-4,105,i,0.97,-1.2,-128,99

As entered above.
`CCOC(=O)CCC(NC(=O)CCCCCCCCC(=O)NC(CCC(=O)OCC)C(=O)OCC)C(=O)OCC` (configuration not stated) | Insulin prom inh cell count: 109
`C=CCNc1nc(C)c(C(C)=O)cc1C#N` | RGS16-Gao: 104
`Cc1cccc(NCc2ccccc2OCc2ccccc2F)c1` | GALR2 ag: 1.1
`Nc1ccc(C(=O)N2CCCC2)cc1` | RGS16-Gao: 99

The results go on.
Structure,PKD1 inh,RGS16-Gao,HSV replic up,HSV replic up primary fold,GALR2 ag,Insulin prom inh,Insulin prom inh cell count
C/C(=N\O)C1/C(=N/O)CC2C1C2(C)C (configuration not stated),-4,103,i,1.1,-2.4,9,104
Oc1ccc(-c2[nH]ncc2-c2cnn(-c3ccccc3)c2)c(O)c1,4,102,i,0.9,nt,nt,nt
O=C(NC1CCCCCC1)C(=S)NCCc1ccccc1,8,107,i,0.97,nt,nt,nt
COc1ccc(O)c(/C=N\NC(=O)CCn2nnc3ccccc32)c1,-6,94,i,0.98,-1.4,44,82
O=C(NCc1nnc(SCC(=O)N2CCCc3ccccc32)o1)c1c(F)cccc1Cl,-1,94,i,0.89,nt,57,69
CCCOc1ccc(NC(N)=O)cc1OCCC,1,104,nt,nt,-2.0,14,114
O=C(CN1CCN(c2ccccc2F)CC1)c1ccc2cc[nH]c2c1,-1,104,nt,nt,-1.9,nt,nt
CC(C)CN(CC(C)C)S(=O)(=O)N1CCC(C(=O)NCCN2CCOCC2)CC1,-3,103,i,0.94,-2.3,-75,130
O=C(CNC(=S)NC(=O)c1cccs1)c1ccccc1,-4,101,i,0.92,0.2,28,128
O=C(CO/N=C/c1ccccc1OC(F)F)NC1CCCC1,4,97,i,1,nt,nt,nt
O=C(CCc1c[nH]c2ccccc12)NCC1COc2ccccc2O1 (configuration not stated),-7,109,i,1.2,nt,30,48
CCOc1ccc(-c2nnn(CCC#N)n2)cc1OC,-13,110,i,0.86,nt,nt,nt
N#CCc1nc(CSc2nc3ccccc3o2)cs1,2,97,i,0.93,-2.5,-118,126
C/C=C/Cn1c(N(C)Cc2ccccc2)nc2c1c(=O)[nH]c(=O)n2C,9,102,i,0.85,0.5,nt,nt
O=C(c1cccs1)c1coc2ccc(O)cc12,8,102,i,0.93,-1.3,-21,113
COc1ccc2[nH]cc(C(O)CN3CCN(c4ccccc4)CC3)c2c1 (configuration not stated),1,114,i,0.93,-1.8,-53,117
Cc1ccc(C(C)NC(=O)c2ccco2)cc1 (configuration not stated),3,106,i,0.77,-1.4,3,43
O=c1[nH]ncc(N/N=C\c2cccnc2)c1Cl,nt,99,i,1.1,nt,nt,nt
O=C1N2c3ccccc3CCc3cccc(c32)C1(O)C(F)(F)F (configuration not stated),-8,108,i,0.77,-1.8,27,52
Cc1c(Nc2nc(-c3ccc(Cl)cc3)cs2)c(=O)n(-c2ccccc2)n1C,13,98,nt,nt,-0.9,nt,nt
CCOC(=O)c1sc(S(C)=O)c2c1CCc1conc1-2 (configuration not stated),nt,103,?,nt,nt,nt,nt
O=C(CCn1cnnn1)Nc1ccc(Cl)cc1Cl,-5,102,i,0.91,nt,nt,nt
CSc1ccccc1C(=O)C1CCCN(C(=O)c2cc(C(C)C)no2)C1 (configuration not stated),0,97,i,0.88,nt,19,123
O=C(Nc1cccnc1)Nc1ccc(Cl)cc1Cl,4,96,i,1,nt,nt,nt
O=C(Nc1ccc(Cl)cn1)c1ccc2c(Cl)c3c(nc2c1)CCC3,nt,95,i,0.76,nt,nt,nt
CN(Cc1ccccc1)C(=O)COC(=O)Cn1cnc2ccccc21,10,104,i,1.1,nt,nt,nt
COc1ccc(OC)c(NC(=S)NCc2ccc(S(N)(=O)=O)cc2)c1,3,105,i,0.98,nt,-12,162
CCOc1ccc(-n2c(=O)c3c4c(sc3n(CC(=O)NCC3CCCO3)c2=O)CCC4)cc1 (configuration not stated),-2,113,nt,nt,nt,0,142
COc1ccc(N2CCN(C(CNS(=O)(=O)c3cc(F)ccc3F)c3cccnc3)CC2)cc1 (configuration not stated),-1,100,nt,nt,-0.7,6,18
Nc1ccc(Cc2nc3cc4ccccc4cc3[nH]2)cc1,1,101,i,0.8,-3.6,nt,nt
Cc1cc(C)n2cc(CSc3nnnn3-c3ccccc3C)nc2n1,-1,105,i,1,-2.8,6,98
Cn1c(CNc2ccc(Cl)cc2)nnc1SCc1ccccc1,11,96,i,0.8,-1.6,-10,119
O=C(c1ccccc1Cl)N1CCN(c2ccccn2)CC1,2,103,nt,nt,2.9,11,146
O=C(CSc1nnc(SCc2ccccc2)s1)N/N=C/c1c[nH]c2ccccc12,-1,109,i,0.99,nt,0,109
Cc1ccc(N2C(=O)C(Cl)=C(NCCO)C2=O)c(C)c1,2,107,i,0.97,0.3,-20,96
CCOC(=O)c1cc(NC(=O)/C=C\C(=O)O)ccc1Cl,5,100,i,0.86,nt,nt,nt
COc1ccc(CCNc2ncnc3nc[nH]c23)cc1OC,0,103,i,0.98,-1.5,-30,84
N#C/C(=C(/O)CN1C(=O)c2ccccc2C1=O)c1nc2ccccc2[nH]1,5,102,i,0.87,-2.8,40,83
CCn1c(SCC(=O)NCCOc2ccccc2)nc2ccccc2c1=O,11,743,i,0.97,-0.4,-33,117
CCC1(CC)C(=O)C(C)(C)C(=O)OC1c1cccs1 (configuration not stated),-6,101,i,0.94,0.2,24,77

Some of these compounds in order of the PKD1 inh value, descending.
Molecule	PKD1 inh
O=C(CO/N=C/c1ccccc1OC(F)F)NC1CCCC1	4
Nc1ccc(Cc2nc3cc4ccccc4cc3[nH]2)cc1	1
O=C(CCc1c[nH]c2ccccc12)NCC1COc2ccccc2O1 (configuration not stated)	-7

Next records follow:
Structure,PKD1 inh,RGS16-Gao,HSV replic up,HSV replic up primary fold,GALR2 ag,Insulin prom inh,Insulin prom inh cell count
CC1=NN(C(N)=S)C(=O)C1N=Nc1ccc(O)cc1 (configuration not stated),12,123,i,1.1,nt,nt,nt
Cc1cc(NS(=O)(=O)c2ccc(NC(=O)CSc3nnc(-c4ccco4)n3C)cc2)nc(C)n1,6,98,i,0.83,0.0,20,123
CCc1cc2c(NC3CCCC3)ncnc2s1,2,94,i,1,nt,nt,nt
Cc1cccc(-n2c(O)c(C=Nc3ccccc3-c3n[nH]c(=S)[nH]c3=O)c3ccccc3c2=O)n1,nt,94,i,1,nt,nt,nt
O=C1CCCN1CCCN1C(=O)N[C@@H](Cc2ccccc2)C1=O,-5,96,i,0.77,-0.5,nt,nt
Cc1ccnc2nc(C(=O)OCC(=O)NCCc3ccccc3)nn12,0,99,i,0.91,-0.7,73*,129*
CCOC(=O)Cc1csc(/N=C/c2c(O)n(-c3ccc(C)c(C)c3)c(=O)c3ccccc23)n1,-6,98,i,0.89,-1.9,-6,54
CC1CCCN(S(=O)(=O)c2ccc(NC(=O)c3cccc(-n4cnnn4)c3)cc2)C1 (configuration not stated),2,92,i,0.84,-2.7,nt,nt
Cc1cc(C)cc(N2CCN(C(=O)N3CCOCC3)CC2)c1,-10,102,i,0.88,-0.1,-29,61
CCOC(=O)N1CCN(C(=O)C2CC(c3ccccc3OC)=NO2)CC1 (configuration not stated),-14,102,i,1.6,0.6,nt,nt
Cc1cccc(-n2cc(CN(C)Cc3nccn3C)c(-c3cccc(F)c3)n2)c1,-3,108,i,1,nt,-29,99
Fc1ccccc1CSc1nncn1NC/C=C/c1ccccc1,-2,101,i,0.88,-3.8,28,95
Oc1ccccc1-c1cc(C(F)(F)C(F)F)[nH]n1,-7,110,i,0.91,-0.7,-32,75
COc1ccc(N2C(=NC(C)=O)SC3CS(=O)(=O)CC32)cc1OC (configuration not stated),3,73,i,1,-3.0,-29,88
CCC[n+]1cn(/C(C(=S)Nc2cccc(Cl)c2C)=C(/[O-])c2ccc(OC)c(OC)c2)c2ccccc21,3,80,i,0.92,nt,11,38
CCc1ccc(CN(C)Cc2nc(Cc3ccccc3)no2)nc1,10,100,i,1,nt,nt,nt
OCCN1CN=C(Nc2nc3ccccc3o2)NC1,15,203,i,0.9,-2.9,-10,83
CCc1cc2c(=O)n(Cc3ccco3)c(SCC(=O)N(C)C3CCS(=O)(=O)C3)nc2s1 (configuration not stated),3,104,i,1,nt,nt,nt
CCOc1ccc2c(c1)OC(c1ccccc1)(C(F)(F)F)NC2=O (configuration not stated),-2,97,i,0.94,0.5,-212,176
Cc1ccc(Nc2nc(CSc3nnc(-c4ccccc4C)n3C)cs2)cc1,-1,108,i,0.83,-1.3,-44,66
Cc1cccc(Oc2ncnc3oc(-c4ccccc4)cc23)c1C,2,103,i,1,-1.8,-57,126
O=C(c1ccc(=O)n(Cc2ccccc2)n1)N1CCN(C/C=C/c2ccccc2)CC1,-15,108,i,0.98,-0.3,-73,147
Nc1ccc(N2CCCCC2)c(Cl)c1,3,103,i,1.1,nt,nt,nt
CCCCc1ccc(-n2nnnc2SCC(=O)Nc2cc(OC)c([N+](=O)[O-])cc2C)cc1,-7,33,i,0.95,-2.1,nt,nt
O=C(OCc1cc(=O)n2cc(Br)ccc2n1)c1ccc(Cl)c(S(=O)(=O)NCc2ccccc2)c1,-8,60,i,0.95,0.3,-13,118
CCC(=O)Nc1ccc2c(c1)nc1n2CCN(C2CCCCC2)C1,-7,101,i,0.75,nt,nt,nt
COc1ccc(CN2CCNC(=O)C2CC(=O)N2CCCCO2)c(OC)c1 (configuration not stated),-6,105,i,0.95,nt,22,218
CCOc1cc(/C=N/NC(=O)Cc2ccc(C(F)(F)F)cc2[N+](=O)[O-])ccc1O,1,100,i,0.86,-0.8,-4,104
COCC(=O)Nc1nc2ccc(S(C)(=O)=O)cc2s1,-5,97,i,0.79,0.4,-45,64
CCOC(=O)n1c(O)c(N=NC(N)=S)c2cc(C)ccc21,nt,105,i,1.1,nt,nt,nt
